# Bioassay records as filed in PubChem BioAssay.
# gsp antag: qHTS for Antagonists of gsp, the Etiologic Mutation Responsible for Fibrous Dysplasia/McCune-Albright Syndrome: qHTS; gsp-mutant cells, cAMP HTRF, 30 min; control for the full effect not named in the record; Potency, µM (top dose mostly 76.9 µM), inactives show top-dose activity change, negative = inhibition, actives largely listed as inhibitors; AID 624288, 2012; actives 0.4% (n = 340,000); active = falling curve of any shape with a large fitted effect; inconclusive = falling curve, mostly with a smaller effect; inactive = flat or rising curve; cell line not stated here;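 also: intracellular cAMP measured with PDE inhibitor Ro 20-1724 present during compound exposure; potency is read from the fitted curve at half-maximal effect; % is scaled to controls: 0 for no effect and ±100 for the full control effect; nearly all actives have a fitted effect of over 65% in size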
#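 HTRF cAMP read-out (cAMP-d2 plus anti-cAMP antibody-K in lysis buffer, 30 min RT). Before lysis, cells are exposed to compounds with […] for 30 min at 37C in DPBS containing Ca/Mg, BSA and Tween 20.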
# PINK1 expr mod: A Quantitative High throughput Screen to Identify Chemical Modulators of PINK1 Expression; PINK1 immunofluorescence, high-content cytometry, 24 h; Potency, µM (highest dose often 76.6 µM), for inactives: at the highest dose activation (PINK1 increase), hits mostly activators; actives 0.2% (n = 410,000); active = well fitted activation curve with a large enough effect; inconclusive = small, poorly fitted or top-dose-only effect; inactive = flat fitted curve, though single readings scatter; cell line not stated here;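 also: potency is read from the fitted curve at half-maximal effect; % of control where 0% means no effect; nearly all actives have a fitted effect of over 65% in size; a mitochondrial uncoupler was the plate control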
#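 Readout is PINK1 immunofluorescence, quantified alongside mitochondrial, cell and nuclear markers by laser-scanning microplate cytometry. Cells from a stable line were exposed to compound titrations (5 concentrations) for 24 hours, with CCCP controls.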
# D2 ag: Beta-Arrestin HTS for Positive Allosteric Modulators of the Human D2 Dopamine Receptor: Agonists | D(2) dopamine receptor (Homo sapiens), P14416 | DiscoveRx PathHunter D2 beta-arrestin, luminescence, 90 min; 100% = 57 uM dopamine signal | activation, % (no concentration beside the values) | actives 0.084% (n = 360,000) | AID 624465, 2012; in the data active = activation above about 40%; inconclusive = about 15% to 40%; inactive = below about 15%; also: compound concentration not given in the record; the text of the record calls up to 30% inactive
# Target sequence (P14416 whole entry, looked up): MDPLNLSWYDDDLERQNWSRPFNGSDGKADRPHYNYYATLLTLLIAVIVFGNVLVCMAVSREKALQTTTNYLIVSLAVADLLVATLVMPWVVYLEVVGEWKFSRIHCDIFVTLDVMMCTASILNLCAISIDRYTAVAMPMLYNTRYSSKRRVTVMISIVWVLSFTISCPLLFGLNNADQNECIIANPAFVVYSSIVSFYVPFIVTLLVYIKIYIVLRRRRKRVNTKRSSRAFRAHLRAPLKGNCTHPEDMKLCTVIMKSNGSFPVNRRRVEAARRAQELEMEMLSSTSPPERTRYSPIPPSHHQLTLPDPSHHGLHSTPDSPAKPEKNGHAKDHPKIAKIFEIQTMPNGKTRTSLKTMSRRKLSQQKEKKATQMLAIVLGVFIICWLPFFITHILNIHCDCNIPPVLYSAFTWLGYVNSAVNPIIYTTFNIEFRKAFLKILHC
#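 DiscoveRx PathHunter D2 beta-arrestin cells (2,100/well) attached overnight, then compound-stimulated 90 min at 37 C in HBSS/10 mM HEPES/0.1% Tween-20 buffer; beta-galactosidase complementation read by luminescence after 1 h at ambient temperature. Dopamine 57 uM final (EC100) as control.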
# ClpP mod: qHTS Assay for Activators of ClpP; Potency, µM (series often up to 57.5 µM), inactives show top-dose activity change, negative = active; actives 1.9% (n = 340,000); purified B. subtilis ClpP, FRET peptide cleavage, 20 min; AID 651965, 2013; active = well fitted falling curve with a large enough effect; inconclusive = small, poorly fitted or top-dose-only effect; inactive = no such curve, though single readings can be large or run the other way; also: potency is read from the fitted curve at half-maximal effect; the source files actives as falling curves though it sought activators and does not explain the sign; nearly all actives have a fitted effect of over 65% in size; many hits overshoot -100%
# Target sequence (P80244 whole entry, looked up): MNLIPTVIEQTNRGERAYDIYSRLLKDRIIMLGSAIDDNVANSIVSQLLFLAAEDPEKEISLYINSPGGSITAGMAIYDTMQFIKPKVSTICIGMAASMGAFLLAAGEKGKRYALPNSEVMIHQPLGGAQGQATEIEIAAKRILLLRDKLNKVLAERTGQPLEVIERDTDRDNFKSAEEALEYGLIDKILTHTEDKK
#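 FRET quenching reversal measured ClpP activation: 10 microg/mL B. subtilis ClpP at pH 8 with the FRET-FV decapeptide, read at 430 nm after 320 nm excitation. The 20-min minus 0-min signal was scaled between DMSO/no-enzyme wells and ADEP (5.8 microM final).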
# Menin MLL FP FL: qHTS Assay for Inhibitors Targeting the Menin-MLL Interaction in MLL Related Leukemias: Competition With Fluorescein Labeled MLL-derived Peptide; Fluorescence polarization, fluorescein-MLL peptide displacement from menin; FP activity change, % at 61.4 µM; 290,000 tested, under 10 active; inconclusive = falling polarisation curve, or a change in total fluorescence; inactive = total fluorescence flat and polarisation flat or rising; no compound was filed as active; the % refers to the polarisation; negative = inhibition;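 also: % of control where 0% means no effect; inhibitors lower the polarisation; unlabelled MLL peptide was the positive control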
# Sfp PPTase inh: qHTS Assay for Inhibitors of Bacillus subtilis Sfp phosphopantetheinyl transferase (PPTase); 4'-phosphopantetheinyl transferase ffp (Bacillus subtilis), Q9F4F7; Biochemical Sfp PPTase activity, qHTS; Potency, µM, without a hit: max response, negative = inhibition, actives largely listed as inhibitors; actives 3.5% (n = 310,000); active = well fitted inhibition curve with a large enough effect; inconclusive = small, poorly fitted or top-dose-only effect, or another doubt; inactive = no such curve, though single readings can be large or run the other way;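 also: the enzyme is Sfp with the accession as filed and its product quenches rhodamine fluorescence; potency is read from the fitted curve at half-maximal effect; 0% = enzyme reaction without inhibitor and -100% = no enzyme wells; top concentration of the series not given in the record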
#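 Fluorescence-quenching assay with 15 nM Sfp, 5 uM rhodamine-CoA and 12.5 uM BHQ-2-labelled ybbR peptide in pH 7.6 Hepes/MgCl2 buffer. Enzyme was pre-incubated with compound for 15 min at room temperature. Rate was taken from the 30-min fluorescence change (525/598 nm).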
# gsp ag: qHTS for Agonist of gsp, the Etiologic Mutation Responsible for Fibrous Dysplasia/McCune-Albright Syndrome: qHTS | Potency, µM (top dose mostly 76.9 µM), inactives show at the highest dose activation (cAMP increase), actives largely listed as activators | actives 0.13% (n = 340,000) | AID 624287, 2012 | gsp mutant cells, cAMP HTRF, 30 min; control for the full effect not named in the record; active = well fitted activation curve with a large enough effect; inconclusive = small, poorly fitted or top-dose-only effect, or another doubt; inactive = no such curve, though single readings can be large or run the other way; cell line not stated here;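 also: phosphodiesterase inhibitor Ro 20-1724 added with compounds to block cAMP breakdown; potency is read from the fitted curve at half-maximal effect; nearly all actives have a fitted effect of over 60% in size; about a fifth of the inactives were tested at one dose only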
#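 Cells stably selected in G418 were plated at 2000/well, grown 16-24 hr, then given compounds in DMSO with the PDE inhibitor […] (300 uM solution added) for 30 min at 37C; cAMP was read by HTRF.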
# * hit, by the source's call; ? = inconclusive; / = no result given; [ ] = another dose, or the depositor's remark.
SMILES,gsp antag,PINK1 expr mod,D2 ag,ClpP mod,Menin MLL FP FL,Sfp PPTase inh,gsp ag
O=C(CSc1n[nH]c(-c2ccccc2O)n1)NC1CCCCC1,-13%,15%,-4.4,/,-2.9,18%,0%
O=C(CCN1C(=O)S/C(=C\c2ccc(Cl)cc2)C1=O)Nc1ccc(C(=O)O)cc1,-12%,13%,-0.2,-1.8%,/,?,-2%
COc1ccc(C2c3ccc4ccccc4c3Oc3ncn(Cc4ccco4)c(=N)c32)cc1OC (stereo not drawn),3%,-3.0%,1.1,-4.1%,5.8,-23%,-7%
COc1ccccc1C(=O)NC(=O)Cn1nc(C)c([N+](=O)[O-])c1C,9%,0.3%,-1.8,2.8%,/,/,-6%[15.4 µM]
Cc1cc(C(=O)NC(C)c2ccncc2)no1 (stereo not drawn),6%,-5.7%[38.3 µM],1.5,-2.4%,-15,16%,-5%
O=C(COc1ccccc1[N+](=O)[O-])NCCCN1CCCC1=O,2%,0.7%,2.0,-3.1%,/,/,-1%
N#CCCn1cc(/C=C2\NC(=S)N(c3ccccc3)C2=O)c(-c2ccc(F)cc2)n1,?,2.2%,-0.8,/,12,-11%,-3%
Cc1nn(-c2ccccc2)c(C)c1NC(=O)COC(=O)[C@@H](NC(=O)c1ccccc1)C(C)C,-1%,4.7%,-2.2,-13%,/,/,-3%
CCOc1cc(/C=N/NC(=O)C(=O)NC)cc(Br)c1O,-27%,-1.5%,-2.2,-2.6%,7.1,-20%,1%
Cc1ccsc1/C=N/N1CCN(c2ccccc2)CC1,-10%,?,-0.9,-0.4%,-2.8,13%,34%
CC(C)N(C(=O)COC(=O)c1ccc(Cl)nc1)C(C)C,13%,-0.8%,5.4,-2.8%,-0.3,7%,-34%[inhibitor]
O=S(=O)(Nc1nccs1)c1ccc(NCc2cc(Br)cc(Br)c2O)cc1,-7%,0.7%,-5.9,0.9%,3.8,10%,4%
Cc1ccc(C)c(OCCC(=O)OC(C)C(=O)Nc2c(C)n(C)n(-c3ccccc3)c2=O)c1 (stereo not drawn),8%,-1.7%,-5.4,1.2%,/,/,-21%
O=c1ccc(-c2ccc(S(=O)(=O)Nc3ccc(F)cc3)s2)n[nH]1,4%,0.9%,2.3,0.0%,/,6%,?
CN(C(=O)CSc1nnc(COc2ccccc2F)n1N)C1CCCCC1,2%,-0.9%,-0.9,/,/,/,38%[15.4 µM]
Cc1ccc(NC(=O)CC2SCCNC2=O)cc1Cl (stereo not drawn),4%,-0.5%,-3.1,-0.8%,0.9,24%,-11%
CCOC(=O)c1[nH]c2ccc(OC)cc2c1NC(=O)CCN1CCc2ccccc2C1,-2%,1.2%,-1.3,28µM*,-2.1,10%,2%
O=C(O)C1=C[C@@H](c2ccccc2)C[C@@H](OCc2ccc(CO)cc2)O1,2%,1.1%,-0.2,-0.6%,7.8,1%,1%
CCCCCC(=O)Nc1ccc(-c2nnc3n2CCCCC3)cc1,6%,-0.8%,-0.6,1.1%,/,8%,?
Cc1cc(NC(=O)CSCC(=O)Nc2ccccc2OC(F)F)no1,8%,-0.1%,-0.1,/,/,/,9%[15.4 µM]
COc1ccc(CN(Cc2cccn2C)S(=O)(=O)c2cccc(C(F)(F)F)c2)cc1,-3%,0.7%,0.1,1.7%,4.0,6%,11%
COc1ccc(OC)c(-c2csc(N(Cc3ccco3)C(=O)c3cccs3)n2)c1,-1%,7.2%,-0.6,?,-2.6,-12%,24%
CCOC(=O)Cc1cc(=O)n2[nH]cc(-c3ccc(Cl)cc3)c2n1,-2%,4.4%,3.0,/,3.7,8%,-2%
CC(C)CNC(=O)CSc1nnc(CN2CCCCCC2=O)n1-c1ccccn1,0%,/,-1.1,-0.1%,-2.7,13%,-10%
O=C(Nc1ccccc1)Nc1ccccc1C(=O)NCc1ccccc1,-2%,9.3%,3.5,-21%,-1.8,12%,8%
SMILES,gsp antag,PINK1 expr mod,D2 ag,ClpP mod,Menin MLL FP FL,Sfp PPTase inh,gsp ag
CCOC(=O)C1CCN(C(=O)c2ccc(Cl)c(NC3=NC4CS(=O)(=O)CC4S3)c2)CC1 (stereo not drawn),10%,0.8%,-1.6,-1.5%,6.8,11%,26%
Cn1c(CNC(=O)CNC(=O)Cc2ccc(Cl)cc2)cc(=O)n(C)c1=O,6%,-0.8%,-2.5,-1.1%,/,6%,?
N/C(=N\OC(=O)c1ccc(=O)n(Cc2ccccc2)c1)c1ccccn1,-19%,4.9%,?,28µM*,1.2,9%,13%[15.4 µM]
Cn1c(SCC(=O)NCc2cccs2)nnc1-c1cccs1,3%,0.3%,-1.0,-3.2%,3.9,-4%,-4%
CCOc1ccc(N2C(=O)C3C(c4ccccc4)=NN(c4ccccc4)C3C2=O)cc1 (stereo not drawn),9%,-4.9%,-3.5,11µM*,1.6,11%,-34%[inhibitor]
O=C1C(C=NC2CC2)=C(O)c2ccccc21,0%,0.2%,-1.7,0.5%,-0.5,7%,?
CCC(CC)NC(=O)COc1ccc(OC)cc1C=O,/,1.4%,-3.0,/,-4.1,16%,3%[15.4 µM]
CN(C(=O)c1ccccc1C(=O)OCC(=O)NCc1cccs1)C1CCCCC1,-8%,1.5%,3.5,/,-0.7,15%,?
CCOc1ccc(/C=N/NC(=O)c2nnn(-c3nonc3N)c2CN2CCC(C)CC2)cc1,-16%,4.6%,-1.6,?,-3.3,-3%,7%[15.4 µM]
CCc1ccc2c(COn3nnc4ccc(S(=O)(=O)N(C)C)cc43)cc(=O)oc2c1,-3%,1.2%,-1.3,-6.2%,1.7,3%,?
CCN(CC)c1ccc(C(NC(C)=O)NC(C)=O)cc1,-1%,-3.9%,-0.8,3.1%,-4.0,8%,-48%[inhibitor]
CC(C)Cn1c(SCC(=O)NCc2ccc(Cl)cc2)nnc1-c1cccc(S(=O)(=O)N2CCOCC2)c1,-16%,3.7%[38.3 µM],-3.7,-0.1%,5.3,14%,-4%
CCCCCn1c(CN(C)Cc2ccccc2)nc2c1c(=O)n(C)c(=O)n2C,-4%,27%[38.3 µM],-4.2,-1.1%,2.3,5%,-7%
COc1cc2c(cc1NC(=O)COC(=O)c1ccc(C(C)(C)C)cc1)oc1ccccc12,13%,6.6%,-4.2,/,2.4,2%,-10%[15.4 µM]
Cc1oc2ccc(OC(=O)COc3c(F)c(F)c(F)c(F)c3F)cc2c1C(=O)OC(C)C,14%,-0.1%,-4.9,/,0.6,7%,?
CCOC(=O)C1=C(C)Nc2ncnn2C1c1c[nH]c2ccccc12 (stereo not drawn),4%,18%[38.3 µM],-0.7,0.3%,-0.9,9%,20%
CC(C)c1cc(C(=O)O)c2ccccc2n1,15%,1.5%,-1.5,-1.8%,4.3,18%,11%
CCOC(=O)N1CCC(NC2CCCCCCC2)CC1,14%,9.6%[38.3 µM],2.1,1.2%,-2.1,-1%,-1%
CCOC(=O)C1C(c2ccc(O)cc2)NC(=O)NC1(O)C(F)(F)F (stereo not drawn),-1%,1.1%,-4.5,1.7%,-2.8,17%,2%
Cc1nc(C(F)(F)F)ccc1C(=O)N1CCC1(C)C(=O)NS(=O)(=O)c1ccc2c(c1)CCO2 (stereo not drawn),/,1.0%,-1.6,0.1%,/,/,/
CC1CCCCC1NC(=O)CCn1c(=O)sc2ccccc21 (stereo not drawn),9%,0.5%,-1.7,1.2%,/,4%,-20%
COc1cc(-n2c(=O)c3ccccc3n(Cc3cc(=O)n4ccccc4n3)c2=O)cc(OC)c1OC,3%,3.1%,-3.6,?,-0.1,1%,-7%
O=C(CCCOc1ccccc1)N1CCN(c2ccc(F)cc2)CC1,6%[15.4 µM],-0.1%,-2.0,-1.4%,-0.2,14%,-42%[inhibitor]
O=C(CSc1nnc(-c2ccncc2)o1)NCc1ccc(Cl)cc1,0%,0.4%,-4.2,-0.5%,6.7,5%,?
O=C(Cn1c(-c2ccccn2)nc2ccccc21)N/N=C/c1cccnc1,-22%,-0.4%,4.1,/,0.1,6%,0%[15.4 µM]
SMILES,gsp antag,PINK1 expr mod,D2 ag,ClpP mod,Menin MLL FP FL,Sfp PPTase inh,gsp ag
Cc1ccc(N(C(=O)C2CCC(=O)N2)C2(C(=O)NC3CCCCC3)CCCCC2)cc1 (stereo not drawn),12%,0.6%,-1.1,-0.4%,8.0,4%,-17%
CNC(=O)c1sccc1Oc1ccc(F)cc1[N+](=O)[O-],-7%,0.8%,1.8,/,-1.1,-6%,-2%[15.4 µM]
CCSC(C)CC1CC(=O)CC(=O)C1 (stereo not drawn),-4%,7.1%,-3.5,1.1%,0.4,-6%,-4%
COc1ccc(C(=O)NC(=O)NC2(C(Cl)(Cl)Cl)OCCO2)cc1,1%,13%,-0.6,-1.3%,1.5,23%,0%
Clc1ccc(Cn2nnc(-c3ccc(N4CCOCC4)cc3)n2)cc1,1%,/,-4.4,?,5.0,5%,-51%[inhibitor]
C/C(=N\NC(=O)c1c(Cl)c(C)nn1C)c1ccc(NC(=O)COc2ccc(Cl)cc2C)cc1,-7%,14%,-1.3,25µM*,-0.6,-2%,16%
CCOc1nc(NC2CCCCC2)nc(NC(C)(C)C)n1,-21%,3.8%,-2.7,1.9%,6.4,11%,0%
Cc1cc(C)c(C#N)c(SCCN2CCOCC2)n1,-16%,1.4%,-2.0,-6.0%,1.9,3%,23%[15.4 µM]
Cc1ccc(NC(=O)c2ccc(S(=O)(=O)Nc3c(C)n(C)n(-c4ccccc4)c3=O)cc2)nc1,-1%,-1.0%,-2.2,-2.4%,/,/,-9%[15.4 µM]
O=C(CN1CCC(Cc2ccccc2)CC1)NCCc1ccc(F)cc1,1%,-0.3%,-1.6,/,1.5,12%,2%[15.4 µM]
